Beta cell apopt: blocks beta cell apoptosis | INS-1E cytokine-induced death, ATP luminescence, 48 h; percent of positive-control rescue, neutral wells zero | protection from apoptosis, % (test concentration not listed) | actives 0.8% (n = 300,000) | AID 435005;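 active = all replicates at 75% or more, or half of them and the mean; inconclusive = half reach 75% but not the mean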;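 also: 0% = cytokine-treated negative control wells and 100% = positive control rescue; higher means more ATP so stronger rescue from cytokine killing; wells of about 40 µL received 100 nL stock; the first replicate is given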
rRNA inh HTS: selective bacterial rRNA inhibition in E. coli. GFP signal change (wild-type ribosome), % (no concentration beside the values). actives 1.6% (n = 350,000). E. coli WT GFP vs humanized-ribosome RFP mutants, fluorescence, 24 h; stronger effect = lower value; DMSO median 0, no signal -100;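 active = significant combined selectivity score with lowered wild-type GFP, culture density cut under 30%, mutant RFP and density less affected; inactive = any of these conditions unmet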; also: one replicate is shown; some compounds called inactive have numbers as strong as hits
T cruzi inh: T. cruzi replication inhibition | T. cruzi beta-gal in NIH3T3, luminescence, 90 h | inhibition, % (concentration not given with the values) | actives 1.4% (n = 300,000) | AID 1885;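 active = mean inhibition across valid replicates above about 55%, limit read from the data; inconclusive = mean below that limit but half or more replicates reach it; inactive = mean below it, under half of replicates reach it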;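 also: signal also drops with host cell toxicity which is not excluded here; 0% = plate median of DMSO wells and 100% = zero luminescence signal; higher percent means less beta-gal luminescence so fewer parasites; stock transfer was 50 nL into about 50 µL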
ALR inh: human ALR oxidase inhibition via reduced H2O2; inhibition, % (no concentration beside the values); P55789; purified ALR, DTT oxidation, H2O2 HRP-luminol luminescence; actives 3.8% (n = 290,000); AID 485317;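 active = mean and each replicate at 75% or more; inconclusive = only one of the two met; inactive = neither met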;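 also: stock transfer was 7.5 nL into about 7.5 µL; 0% = neutral wells and 100% = wells with inactivated enzyme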
Target sequence (P55789 whole entry, looked up): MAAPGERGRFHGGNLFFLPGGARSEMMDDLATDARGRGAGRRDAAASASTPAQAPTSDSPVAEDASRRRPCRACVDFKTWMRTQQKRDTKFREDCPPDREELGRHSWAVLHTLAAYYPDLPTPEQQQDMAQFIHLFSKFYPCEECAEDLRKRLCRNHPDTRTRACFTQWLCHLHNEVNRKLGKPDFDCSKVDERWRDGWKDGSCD
AF4-AF9 inh: blocks AF4 peptide binding to human AF9; inhibition, % at 10 µM; AlphaScreen, biotin-AF4 peptide binding to FLAG-AF9; actives 0.47% (n = 350,000); P42568;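 active = every replicate reaching a set inhibition limit, whatever the replicate mean, cut at about 25% in these data; inconclusive = mean inhibition reaches that limit but some replicates miss it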;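 also: 0% = plate neutral control median and 100% = total signal loss; the record names both 10 and 1 µM as test concentration; the first replicate is given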
Target sequence (P42568 whole entry, looked up): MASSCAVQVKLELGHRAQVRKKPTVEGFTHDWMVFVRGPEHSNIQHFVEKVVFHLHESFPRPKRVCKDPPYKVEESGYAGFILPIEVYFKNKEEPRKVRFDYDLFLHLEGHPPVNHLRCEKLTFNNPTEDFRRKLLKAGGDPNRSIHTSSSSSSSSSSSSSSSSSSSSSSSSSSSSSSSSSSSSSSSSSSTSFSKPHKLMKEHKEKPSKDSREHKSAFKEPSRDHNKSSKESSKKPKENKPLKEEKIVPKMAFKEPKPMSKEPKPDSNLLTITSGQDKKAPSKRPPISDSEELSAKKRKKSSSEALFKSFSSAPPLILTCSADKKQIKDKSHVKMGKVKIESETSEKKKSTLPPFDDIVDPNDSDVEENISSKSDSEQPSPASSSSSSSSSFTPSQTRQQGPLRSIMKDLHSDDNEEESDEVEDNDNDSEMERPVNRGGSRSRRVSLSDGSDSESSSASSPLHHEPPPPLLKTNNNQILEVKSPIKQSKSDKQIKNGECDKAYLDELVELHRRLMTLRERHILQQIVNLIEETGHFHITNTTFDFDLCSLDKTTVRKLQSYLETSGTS
RanGTP-Imp inh: disruptors of Ran-importin-beta complex formation – biochemical, FRET, CFP-Ran, YFP-importin-beta, homogeneous, primary screen | cell-free CFP-Ran/YFP-importin-beta FRET ratio | inhibition, % (no concentration beside the values) | actives 1.1% (n = 300,000);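 active = most replicates above 15%; inconclusive = exactly half above 15%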;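 also: 0% = DMSO wells and 100% = Ran loaded with GDP instead of GTP; wells of about 40 µL received 100 nL stock; the first replicate is given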
Calb FLC: affects C. albicans growth with fluconazole. C. albicans CaCi-2 (fluconazole-resistant clinical isolate) + fluconazole, Alamar Blue growth, 48 h. growth inhibition, % (test concentration not listed). actives 0.57% (n = 300,000);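 active = most replicates above 75%; inconclusive = exactly half above 75%; inactive = most below 75%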;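 also: all wells also contain fluconazole at 8 µg/ml as a sub-toxic cotreatment; 0% = median of DMSO wells and 100% = median of geldanamycin control wells; wells of about 8 µL received 7.5 nL stock; the first replicate is given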
FGF22 binding: FGF22 (human) thermal shift binding. calls only at 9.99 µM. actives 1.5% (n = 340,000). recombinant FGF22 thermal shift, SYPRO orange fluorescence; percent of sucrose octasulfate shift, DMSO zero. AID 651658;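 active = melting point raised past a set limit in the mean and every replicate; inconclusive = no clear call; three in four hits are not shown here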
Target sequence (Q9HCT0 whole entry, looked up): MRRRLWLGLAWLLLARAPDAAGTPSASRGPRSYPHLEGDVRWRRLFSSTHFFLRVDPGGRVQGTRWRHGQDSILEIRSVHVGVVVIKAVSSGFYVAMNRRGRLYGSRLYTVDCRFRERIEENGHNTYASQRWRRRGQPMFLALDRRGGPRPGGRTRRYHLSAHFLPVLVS
rRNA inh HTS OD600: also measured in rRNA inh HTS; calls as there; OD600 change, %; measured here: OD600 growth;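 optical density of the mix in the first replicate; 0 = DMSO median and -100 = no signal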
rRNA inh HTS RFP: further read-out of rRNA inh HTS, marked with its call; RFP signal change, %; measured here: RFP humanized mutant strains;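 first replicate; 0 = DMSO median and -100 = no signal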
* hit, by the source's call.

CCCOc1ccc(/C=N/NC(=O)C2CCCN2S(=O)(=O)c2ccc(Cl)cc2)cc1 (centres undefined) was read as Beta cell apopt -1, T cruzi inh -8, ALR inh -4, RanGTP-Imp inh 8.2 and Calb FLC 1.
Screening CCOCC(=O)Nc1ccc(C(=O)Nc2ccccc2Cl)cc1 returned Beta cell apopt 0, rRNA inh HTS -2, T cruzi inh -6, ALR inh 1, AF4-AF9 inh -0.2, RanGTP-Imp inh 1.6, Calb FLC 16, FGF22 binding inactive, rRNA inh HTS OD600 -6 and rRNA inh HTS RFP 0.3.
O=C(C1Cc2ccccc2CN1C(=O)c1ccco1)N1CCN(c2ccccc2)CC1 (centres undefined) was read as Beta cell apopt -6, rRNA inh HTS -2, ALR inh 50, AF4-AF9 inh inconclusive, FGF22 binding inactive, rRNA inh HTS OD600 1 and rRNA inh HTS RFP -0.2.
For CCOC(=O)c1sc(NC(=O)CC)nc1C the results were Beta cell apopt 1, rRNA inh HTS 8, T cruzi inh -14, ALR inh 4, AF4-AF9 inh -2.5, RanGTP-Imp inh 1.2, Calb FLC 46, rRNA inh HTS OD600 5 and rRNA inh HTS RFP -0.1.
Screening CC(=O)Nc1ccc(NC(=O)CC23CC4CC(CC(C4)C2)C3)cc1 returned rRNA inh HTS -1, T cruzi inh -3, ALR inh 2, AF4-AF9 inh -1.7, RanGTP-Imp inh -0.7, Calb FLC -43, FGF22 binding inactive, rRNA inh HTS OD600 -13 and rRNA inh HTS RFP 2.8.
For O=C(COC(=O)c1cccc([N+](=O)[O-])c1)NC1CCCC1 the results were Beta cell apopt 2, rRNA inh HTS 3, T cruzi inh -16, ALR inh -11, AF4-AF9 inh 1.0, RanGTP-Imp inh -5.3, Calb FLC 3, FGF22 binding inactive, rRNA inh HTS OD600 15 and rRNA inh HTS RFP -0.6.
For O=C(NCCN1CCOCC1)C1(C(F)(F)F)C/C(=C\Cc2ccccc2)CCCO1 (centres undefined) the results were Beta cell apopt -10, rRNA inh HTS 5, T cruzi inh 6, ALR inh -14, AF4-AF9 inh 0.8, RanGTP-Imp inh 2.1, Calb FLC 2, FGF22 binding inactive, rRNA inh HTS OD600 4 and rRNA inh HTS RFP -6.8.
`CCOC(=O)c1c(C)n(C)c2ccc(OC)c([N+](=O)[O-])c12` gave Beta cell apopt -6, rRNA inh HTS 9, T cruzi inh 10, ALR inh 2, AF4-AF9 inh 1.4, RanGTP-Imp inh 3.7, Calb FLC 12, FGF22 binding inactive, rRNA inh HTS OD600 5 and rRNA inh HTS RFP -0.1.
COc1ccc(C)cc1NC(=O)Nc1ccncc1 was read as Beta cell apopt 0, rRNA inh HTS -1, T cruzi inh 27, ALR inh -4, AF4-AF9 inh 3.5, RanGTP-Imp inh -3.6, Calb FLC 18, FGF22 binding inactive, rRNA inh HTS OD600 8 and rRNA inh HTS RFP 5.4.
`Cc1ccc(CCNC(=O)CCCn2nc(C)c3c(C)n(-c4ccc(C)cc4)nc3c2=O)cc1` gave Beta cell apopt 3, rRNA inh HTS 6, T cruzi inh 4, ALR inh -12, AF4-AF9 inh -9.6, RanGTP-Imp inh 0.1, Calb FLC -2, FGF22 binding inactive, rRNA inh HTS OD600 2 and rRNA inh HTS RFP -0.9.
For COc1cc(/C=C(\C#N)C(=O)N2CCOCC2)ccc1OCc1ccccc1 the results were Beta cell apopt -2, rRNA inh HTS -5, T cruzi inh -16, ALR inh 21, AF4-AF9 inh 0.3, RanGTP-Imp inh 8.8, Calb FLC -7, FGF22 binding inactive, rRNA inh HTS OD600 -2 and rRNA inh HTS RFP 0.4.
For O=C(O)c1cccc(NC(=S)NC(=O)c2cncc(Br)c2)c1 the results were Beta cell apopt 1, rRNA inh HTS 7, T cruzi inh -8, ALR inh 34, AF4-AF9 inh -6.0, RanGTP-Imp inh 2.6, Calb FLC 2, FGF22 binding inactive, rRNA inh HTS OD600 1 and rRNA inh HTS RFP 3.3.
For O=C(Nc1ccc(S(=O)(=O)N2CCCC2)cc1)C1CCN(S(=O)(=O)c2ccc(F)cc2)CC1 the results were Beta cell apopt 8, rRNA inh HTS -7, T cruzi inh 11, AF4-AF9 inh 1.7, RanGTP-Imp inh -0.5, Calb FLC -5, FGF22 binding inactive, rRNA inh HTS OD600 -8 and rRNA inh HTS RFP -0.6.
Screening CC1(C)Cc2c(sc(NC(=O)COc3cccc4ccccc34)c2C#N)C(C)(C)N1 returned Beta cell apopt 10, T cruzi inh 9, ALR inh -11, AF4-AF9 inh -2.7, RanGTP-Imp inh -2.4, Calb FLC -6 and FGF22 binding inactive.
For COc1ccc(N(CC(=O)N2CCc3ccccc3C2)S(C)(=O)=O)cc1OC the results were Beta cell apopt 0, T cruzi inh -6, ALR inh -4, RanGTP-Imp inh inconclusive and Calb FLC -3.
For O=C(N/N=C\c1cccc(Cl)c1)c1n[nH]c2c1CCCC2 the results were Beta cell apopt 4, rRNA inh HTS 9, T cruzi inh 3, ALR inh -2, AF4-AF9 inh -6.2, RanGTP-Imp inh 2.1, Calb FLC 8, FGF22 binding inactive, rRNA inh HTS OD600 8 and rRNA inh HTS RFP -2.5.
For Cc1cccc(C(C)C)c1NC(=O)C1CN(S(=O)(=O)c2ccccc2)CCN1S(=O)(=O)c1ccccc1 (centres undefined) the results were Beta cell apopt 0, rRNA inh HTS -2, T cruzi inh 27, ALR inh -2, AF4-AF9 inh 2.0, RanGTP-Imp inh inconclusive, Calb FLC 58, FGF22 binding inactive, rRNA inh HTS OD600 -1 and rRNA inh HTS RFP 5.0.
`O=c1[nH]c(C2CCN(S(=O)(=O)c3ccccc3)CC2)nc2c1nnn2Cc1cccc(Cl)c1` gave Beta cell apopt 4, rRNA inh HTS -9, T cruzi inh -9, ALR inh 63, AF4-AF9 inh 0.7, RanGTP-Imp inh 9.0, Calb FLC 18, FGF22 binding inactive, rRNA inh HTS OD600 -18 and rRNA inh HTS RFP 4.2.
`Cn1c(=O)c2c(nc(N3CCc4ccccc4C3)n2C)n(C)c1=O` gave rRNA inh HTS -22*, T cruzi inh 11, ALR inh 3, AF4-AF9 inh -0.3, RanGTP-Imp inh 3.7, Calb FLC 3, FGF22 binding inactive, rRNA inh HTS OD600 -16* and rRNA inh HTS RFP -1.1*.
For O=C(OCCCN1C(=O)c2ccccc2C1=O)c1ccco1 the results were Beta cell apopt -2, T cruzi inh -9, ALR inh 3, RanGTP-Imp inh -1.0 and Calb FLC -3.
`COc1ccc(NC(=S)N2CCN(Cc3ccco3)CC2)c(OC)c1` gave Beta cell apopt -2, rRNA inh HTS 8, T cruzi inh -5, ALR inh -28, AF4-AF9 inh inconclusive, RanGTP-Imp inh -2.7, Calb FLC -11, FGF22 binding inactive, rRNA inh HTS OD600 -3 and rRNA inh HTS RFP -3.8.
COC(=O)C(C#N)c1nc2ccccc2nc1N1CCCC1 (centres undefined) was read as Beta cell apopt -5, T cruzi inh 10, ALR inh 14, RanGTP-Imp inh 0.7 and Calb FLC 1.
`CC(=O)c1c(C)[nH]c(C(=O)CSc2nnc(-c3ccco3)n2Cc2ccccc2)c1C` gave Beta cell apopt 0, T cruzi inh 2, ALR inh 8, RanGTP-Imp inh 8.4 and Calb FLC 8.
O=C(Nc1nnc(Cc2ccccc2)s1)C1CCN(C(=O)c2ccco2)CC1 was read as Beta cell apopt -3, rRNA inh HTS -1, T cruzi inh 11, ALR inh -3, AF4-AF9 inh -0.5, RanGTP-Imp inh -7.4, Calb FLC -3, FGF22 binding inactive, rRNA inh HTS OD600 -2 and rRNA inh HTS RFP 2.7.
`CCOC(=O)C1(CC2CCCCO2)CCN(Cc2ccccc2-c2ccco2)CC1` (centres undefined) gave Beta cell apopt 3, rRNA inh HTS 5, T cruzi inh 23, AF4-AF9 inh 0.6, RanGTP-Imp inh inconclusive, Calb FLC 1, FGF22 binding inactive, rRNA inh HTS OD600 1 and rRNA inh HTS RFP 4.1.
`COc1cc(N=C2C(=O)N3CCCc4cccc2c43)cc(OC)c1` gave T cruzi inh 25, ALR inh -9, RanGTP-Imp inh -7.2 and Calb FLC -8.
Screening COc1cccc(N2CCN(c3nc(C)c(C)c(=O)[nH]3)CC2)c1 returned Beta cell apopt -5, rRNA inh HTS 7, T cruzi inh -4, ALR inh 27, AF4-AF9 inh 0.2, RanGTP-Imp inh -5.9, Calb FLC -8, FGF22 binding inactive, rRNA inh HTS OD600 9 and rRNA inh HTS RFP -3.8.
For CN1CCN(Cc2nc3c([nH]2)c(=O)[nH]c(=O)n3C)CC1 the results were Beta cell apopt -1, T cruzi inh -19, ALR inh 1, RanGTP-Imp inh 6.1 and Calb FLC -13.
Screening O=C(O)CC1S/C(=N\N=C/c2ccccc2O)N(c2ccc(O)cc2)C1=O (centres undefined) returned Beta cell apopt -3, rRNA inh HTS 2, T cruzi inh 12, ALR inh 2, AF4-AF9 inh 0.2, RanGTP-Imp inh 4.0, Calb FLC 15, rRNA inh HTS OD600 -4 and rRNA inh HTS RFP -3.9.
`CCS(=O)(=O)NCCc1csc(C)n1` gave Beta cell apopt -3, T cruzi inh -14, ALR inh -7, RanGTP-Imp inh 6.5 and Calb FLC inconclusive.
For COC(=O)c1ccc(C(=O)OC)c(NC(=O)C2CC2)c1 the results were Beta cell apopt 3, rRNA inh HTS 5, T cruzi inh 3, ALR inh -5, AF4-AF9 inh 1.3, RanGTP-Imp inh -1.1, Calb FLC -2, FGF22 binding inactive, rRNA inh HTS OD600 5 and rRNA inh HTS RFP -1.8.
Cc1cc(NC(=O)COC(=O)c2c(C)nn(-c3ccccc3)c2C)no1 was read as Beta cell apopt -1, T cruzi inh -9, ALR inh -6, RanGTP-Imp inh -3.0 and Calb FLC 12.
CC(c1ccccc1)n1cnc2ccccc2c1=O (centres undefined) was read as Beta cell apopt -5, rRNA inh HTS 7, T cruzi inh 11, ALR inh 3, AF4-AF9 inh 1.4, RanGTP-Imp inh inconclusive, Calb FLC -5, FGF22 binding inactive, rRNA inh HTS OD600 -3 and rRNA inh HTS RFP 0.3.
COc1ccc(C(=O)Nc2ccc(S(=O)(=O)Nc3cc(C)nc(C)n3)cc2)cc1 was read as Beta cell apopt -1, rRNA inh HTS -1, T cruzi inh 0, ALR inh 0, AF4-AF9 inh 4.9, RanGTP-Imp inh 2.4, Calb FLC 6, FGF22 binding inactive, rRNA inh HTS OD600 -5 and rRNA inh HTS RFP -6.9.

These rows are one share of the data; the hit share may differ from the screen's.
